Compound activity: PubChem BioAssay, Broad Institute
Tg IFNy HTS – T. gondii growth inhibition with IFN-gamma, primary screen, cell-based; Toxoplasma gondii growth in IFN-gamma-treated host cells; active compounds read low; reference of the scale not given here; activity change, negative = inhibition, %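 (about 20 µM by stock and volumes)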; 69,000 compounds, 3.8% hits; AID 1259416, 2018;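 active means below -70%; inconclusive means fit judged invalid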;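 further: host cells are HeLa cells infected with Toxoplasma gondii; parasite growth read as luciferase light; one replicate is shown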
* hit, by the source's call; ? = inconclusive; & = joins results of further samples.

SMILES	Tg IFNy HTS
CCn1ccc2cc(S(=O)(=O)N3CCC(C(=O)NCCC(C)N4CCCC4)CC3)ccc21 (stereo unspecified)	-30
CSc1ccc(C2c3[nH]c4ccccc4c3CCN2C(=O)c2cccs2)cc1 (stereo unspecified)	16
Cc1ccc2nc(COCC(=O)N3CCOC(C(F)(F)F)C3)[nH]c2c1 (stereo unspecified)	0
COc1ccc(-c2cc(C)nc(C3CCNCC3)n2)cc1	-40
O=C(c1cccs1)N1CCC2(CC1)CC(Oc1ccccc1)CO2 (stereo unspecified)	-7
Fc1ccccc1OCCNC1CCC2(CCNCC2)CC1	-11
CCOc1ccc(-c2noc(-c3c(O)c4cccc(Cl)c4[nH]c3=O)n2)cc1	-49
CO[C@H]1CN(C)C(=O)c2ccc(NC(=O)Nc3ccccc3Cl)cc2OC[C@H](C)NC[C@H]1C	-58
O=C1OCCCN1CCn1ccnc1-c1ccc(C2CCCCO2)o1 (stereo unspecified)	7
Cc1nccn1CCC1CCN(C(=O)C2CC3(CCNCC3)CN2)CC1 (stereo unspecified)	0
CNC(=O)C1CC2(CCN(C(=O)c3csnn3)CC2)c2ccccc21 (stereo unspecified)	-9
CCc1nc(C)ccc1OCC(=O)N1CCC(c2n[nH]c(=O)n2CC)CC1	-1
CC(=O)N1CCC2(CC1)CC(Nc1ncccn1)c1ccccc1O2 (stereo unspecified)	4
Cc1cc(C)n(Cc2nc(-c3ccc(NC(=O)C4CCCO4)cc3)oc2C)n1 (stereo unspecified)	104
CC(C)CC(=O)N1CCC2(C1)CN(c1ccccc1)C(=O)CN2C (stereo unspecified)	-46
CN(Cc1cc(-c2cccnc2)no1)Cc1ncccc1C(=O)O	1
COc1cccc(CNC(=O)[C@@H]2[C@@H](CO)[C@@H]3Cn4c(cccc4=O)[C@H]2N3C(=O)C2CCCC2)c1	22
Cc1[nH]n(C(N)=S)c(=O)c1C(c1ccccc1)C(C#N)C#N (stereo unspecified)	56
Cc1cc(C)cc(S(=O)(=O)N2CCC(c3nc(C(=O)N(C)C)c(C)o3)CC2)c1	17
CN1CCN(c2ncccc2CNC(=O)c2cnnn2-c2ccccc2)CC1	-43
Cc1ccc(CN2CCC3(CC2)C(=O)N(C)CCN3CC2CC2)o1	-8
C=CCN(Cc1ccccn1)Cc1ncc[nH]1	7
O=C(CC1CC1)N1CC2(C1)[C@@H](c1ccccc1)[C@H](CO)N2C(=O)c1ccccn1	-43
CC(C)[C@](O)(c1ccc2cc(OC(F)F)c(OC(F)F)cc2c1)c1cn[nH]n1	17
COc1ccc(NC(=O)NCCNc2nnnn2-c2ccccc2)cc1	-9
CC(C)NC(=O)N1[C@H](CO)[C@H](c2ccccc2-c2ccc(F)cc2)[C@@H]1C#N	-17
Cc1oc(C2CCN(C(=O)Cc3cccc(F)c3)CC2)nc1C(=O)N1CCSCC1	-59
O=C(c1cccs1)N1CCC[C@@]2(C(=O)N3CCOCC3)CN(c3ncccn3)C[C@H]2C1	4
O=C(c1cscn1)N1CCOC2(CCN(Cc3ccco3)CC2)C1	21
CCc1cnc(N2CCc3cc(C(=O)NCC4CC4)c(N(C)C)nc3CC2)nc1	-30

Three structures from above, arranged by SMILES length, rising:
SMILES	Tg IFNy HTS
C=CCN(Cc1ccccn1)Cc1ncc[nH]1	7
O=C(c1cscn1)N1CCOC2(CCN(Cc3ccco3)CC2)C1	21
O=C(c1cccs1)N1CCC[C@@]2(C(=O)N3CCOCC3)CN(c3ncccn3)C[C@H]2C1	4

New compounds follow
SMILES	Tg IFNy HTS
C=CCN1CC2(CCN(Cc3cccnc3)CC2)OCC1=O	-69
COC(=O)c1scc(N)c1C(=O)OC	-39
COC(=O)c1ccsc1N1C(=O)c2ccccc2C1=O	13
Cc1nn(CC(=O)NCc2ccc(-n3cccc3)cc2)c(C)c1Br	-16
COc1ccc(NC(=O)C(=O)NCCc2sc(-c3ccccc3)nc2C)cc1	117
O=C(c1cc(-c2ccc(O)cc2)n[nH]1)N1CC(c2ccncc2)C1	-7
C=CC(=O)N1CCC2(CCC(=O)N2CCN2CCCC2)CC1	-6
O=C(CC1CCCC1)N1CCC(c2nc(Cc3cccs3)no2)C1 (stereo unspecified)	-11
Cc1c(CN(C)Cc2cnc(-c3cccc4ccccc34)nc2)cnn1C	35
Cc1cnc(C(=O)N2C3CCC(C3)[C@H]2c2nc(-c3ccccc3)no2)cn1 (stereo partly specified)	-57
COc1cccc(-c2nc(Cn3nnc(C(=O)Nc4cccc(Cl)c4C)c3C)c(C)o2)c1OC	-16
CCC1C(=O)NCCN1C(=O)CCc1c(C)nn(-c2ccccc2)c1C (stereo unspecified)	0
CNC(=O)CN1CCC2(CCCN(c3ncccn3)C2)CC1	-38
OC1CCN(c2ccnc(-c3cc4ccccc4o3)n2)C1 (stereo unspecified)	107
COc1ccc2c(CN(C)C(C)c3nc(C)sc3C)[nH]nc2c1 (stereo unspecified)	-7
O=C(Cn1ncc2c(N3CCN(c4ccccc4)CC3)ncnc21)Nc1ccccc1F	-63
O=C(CCC1CCCO1)Nc1ncc(Cc2cccc(C(F)(F)F)c2)s1 (stereo unspecified)	-99*
CCc1ccccc1NC(=O)c1nnn(Cc2nc(-c3ccccc3C)oc2C)c1C	-107*
COc1ccccc1NC(=O)N1C[C@@H]2N[C@H](C1)C2c1ccc(/C=C/c2ccccc2)cc1 (stereo partly specified)	-57&-64
CCc1noc(-c2cc(=O)n(CC(=O)Nc3ccccc3OC)c3ccccc23)n1	-69
C=CCn1cc(CN2CCCC2c2ccccc2C)c(C)n1 (stereo unspecified)	6
CCOC(=O)N1CCC2(CC1)N=C(c1ccc(F)cc1)CC(c1ccccc1O)N2 (stereo unspecified)	-26
Cc1cc(Oc2ccc(NC(=O)Nc3ccc(F)cc3)cc2)cc(C2CCNCC2)n1	-68
Cc1[nH]nc(CCC(=O)N2CCCC(O)(CO)CC2)c1C (stereo unspecified)	-3
O=C(c1ccco1)N1CCOCC2(CC(CN3CCCC3)CO2)C1 (stereo unspecified)	-2
c1ccc2[nH]c(CCn3c4ccccc4c4ccccc43)nc2c1	?
O=C(CC1CC1)N1CCC2(CCCN2)CC1	-1
Cc1cc(-c2c(-c3ccccc3)ncn2Cc2cn3c(C)cccc3n2)n[nH]1	1
OCCNC(=S)NC1CC2C=CC1C2 (stereo unspecified)	-7
CC(C)(C(=O)N1CCC2(CCNC(=O)CC2)CC1)c1ccccc1	-4
COc1ccc(CC(=O)N2CCC3(CC2)CN(c2ncccn2)CC32CCN(C)C2=O)cc1 (stereo unspecified)	8
Cc1ccc(S(=O)(=O)Nc2c(C)n(C)n(-c3ccccc3)c2=O)cc1	-15
Cc1n[nH]c(C)c1CC(=O)N1CCC2(CC1)CN(C)CCN2C	8
CN1C(=O)C2(CCN(C(=O)c3cscn3)CC2)c2ccccc21	0
CCCS(=O)(=O)N1CCC2(CC1)NC(=O)CC2c1cnn(C)c1 (stereo unspecified)	2
COCC1c2nnn(CC3CC3)c2CCN1CC1CCOCC1 (stereo unspecified)	3
O=C(Nc1ccc(F)cc1)N1[C@@H]2CNC[C@H]1C2c1ccc(-c2cccnc2)cc1 (stereo partly specified)	-40&16
CCOc1ccccc1C(=O)N1CCC2(CC1)Nc1ccc(C)c(C)c1-n1cccc12	-13
COc1ccc(CNC(=O)[C@H]2C=CCN2C(=O)c2ccco2)cc1	0
CCOc1ccc2[nH]c3c(=O)n(CCc4ccc(OC)cc4)cnc3c2c1	-11
O=S(=O)(NCCc1ccccc1)c1ccc(F)cc1	8
O=C(CCc1n[nH]c2c1CCCC2)N1CCCC(COc2ccc(F)cc2)C1 (stereo unspecified)	-39
CC(C)CN1CCCC2(CCN(c3cnccn3)CC2)C1	-2
Cc1cc(SC(=O)N/C=C/c2ccco2)c(C)cc1Cl	23
CCN(CC)CCCNC(=O)C1=C(C)C(=O)OC12CCN(C(C)=O)CC2	97
CCc1ccc(NC(=O)C2=C(C)C(=O)OC23CCN(S(C)(=O)=O)CC3)cc1	18
N#C[C@@H]1[C@H](c2ccc(C3=CCCCC3)cc2)[C@@H](CO)N1C(=O)CN1CCOCC1	13
COc1cc(-c2nc3c(C)cccc3cc2CO)cc(OC)c1OC	30
CCCc1cc(C(=O)NCCCN2CCCC2=O)n[nH]1	-23
COc1cc(C)nc(N2CCC(C(=O)NCc3ccco3)CC2)n1	19

Sorted by molecular weight (rising): some entries from above.
SMILES	Tg IFNy HTS
OCCNC(=S)NC1CC2C=CC1C2 (stereo unspecified)	-7
CCCc1cc(C(=O)NCCCN2CCCC2=O)n[nH]1	-23
O=S(=O)(NCCc1ccccc1)c1ccc(F)cc1	8
CC(C)CN1CCCC2(CCN(c3cnccn3)CC2)C1	-2
Cc1cc(SC(=O)N/C=C/c2ccco2)c(C)cc1Cl	23
Cc1n[nH]c(C)c1CC(=O)N1CCC2(CC1)CN(C)CCN2C	8
COCC1c2nnn(CC3CC3)c2CCN1CC1CCOCC1 (stereo unspecified)	3
COc1ccc(CNC(=O)[C@H]2C=CCN2C(=O)c2ccco2)cc1	0
CN1C(=O)C2(CCN(C(=O)c3cscn3)CC2)c2ccccc21	0
CC(C)(C(=O)N1CCC2(CCNC(=O)CC2)CC1)c1ccccc1	-4
COc1cc(C)nc(N2CCC(C(=O)NCc3ccco3)CC2)n1	19
COc1cc(-c2nc3c(C)cccc3cc2CO)cc(OC)c1OC	30
Cc1ccc(S(=O)(=O)Nc2c(C)n(C)n(-c3ccccc3)c2=O)cc1	-15
CCN(CC)CCCNC(=O)C1=C(C)C(=O)OC12CCN(C(C)=O)CC2	97
O=C(CCc1n[nH]c2c1CCCC2)N1CCCC(COc2ccc(F)cc2)C1 (stereo unspecified)	-39
O=C(Nc1ccc(F)cc1)N1[C@@H]2CNC[C@H]1C2c1ccc(-c2cccnc2)cc1 (stereo partly specified)	-40&16
CCc1ccc(NC(=O)C2=C(C)C(=O)OC23CCN(S(C)(=O)=O)CC3)cc1	18
CCOc1ccccc1C(=O)N1CCC2(CC1)Nc1ccc(C)c(C)c1-n1cccc12	-13
COc1ccc(CC(=O)N2CCC3(CC2)CN(c2ncccn2)CC32CCN(C)C2=O)cc1 (stereo unspecified)	8

(more compounds)
SMILES	Tg IFNy HTS
CC1CN(C(=O)N2CCOCC2)CCN1C(=O)N1CCOCC1 (stereo unspecified)	-21
O=C(O)c1cc(=O)c2c(Cl)cc(Cl)cc2[nH]1	1&12
CC(=O)c1sc(C(C)(C)C)cc1NC(=O)CCC(=O)O	18
Cc1cc2c(cc1CN1CCC(CNC(=O)C3CNC3)C1)OCCO2 (stereo unspecified)	10
O=C(c1ncn2c1CNS(=O)(=O)c1ccccc1-2)N1CCCCCC1	82
O=C(Nc1ccccc1)Nc1nc(=O)c2ccccc2s1	143
O=S(=O)(O)CCS	5
CC1=NCCN1S(=O)(=O)c1c(C(C)C)cc(C(C)C)cc1C(C)C	16
O=C(C[C@]12COC[C@H]1CN(Cc1ccccc1F)C2)N1CCOCC1	-67
C=CCN1CCCC12CCCN(S(=O)(=O)c1ccc(F)cc1)C2 (stereo unspecified)	-2
COc1ccc2c(c1)CC/C2=N/OC(=O)c1cc(SC)ccc1Cl	-91*
N=[N+]=CC(=O)CC[C@H](N)C(=O)O	13
Cc1cnc(N2C[C@H]3[C@H](C(=O)NCC4CC4)CCS(=O)(=O)[C@H]3C2)nc1	2
N#C[C@H]1[C@H](c2ccccc2-c2ccccc2F)[C@@H](CO)N1C(=O)C1CCC1	-17
COc1cccc(N2CC34C=CC(O3)C(C(=O)O)C4C2=O)c1 (stereo unspecified)	23
CC(=O)N1C2CCN(c3ncc(C)cn3)CC2C[C@H]1Cn1cncn1 (stereo partly specified)	-3
Cc1oc(C2CCN(C(=O)Nc3ccc(Cl)cc3)CC2)nc1C(=O)N1CCCC1	-21
Cc1ccc(NC(=O)C(=O)NCCc2sc(-c3ccc(C)cc3)nc2C)cc1	181
CCC(=O)N1CC2(C1)CN(C(=O)c1cnccn1)[C@H](CO)c1c2c2ccc(OC)cc2n1C	0
C=C(C)c1cccc(C(C)(C)NC(=O)NCCc2ccccc2)c1	18
COc1cccc(CNC(=O)N2CCCC3(C2)Nc2cccnc2NC3=NC2CCCC2)c1 (stereo unspecified)	-19
COc1ccc(-n2ccnc2-c2ccc(Sc3nncn3C)o2)cn1	0
COc1ccc(OC)c(Nc2ncnc3ccc(Br)cc23)c1	-47
O=C(COC(=O)c1ccc(Cl)nc1)NCc1ccc2c(c1)OCO2	9
COc1ccc2c3c([nH]c2c1)[C@H](CO)N(S(=O)(=O)c1ccc(C)cc1)CC31CN(Cc2ccccc2)C1	108
Cc1noc([C@@]23COC[C@@H]2CN(Cc2csc(C)n2)C3)n1	4
CCOCC1CN(CC2CCOCC2)Cc2cn(CC)nc21 (stereo unspecified)	-13
COc1cccn(Cc2nnc(SCc3ccc(Cl)cc3)n2C)c1=O	31
COC(=O)c1sccc1OS(=O)(=O)c1cn(C)cn1	84
COC(=O)[C@@H]1C[C@@H](NC(=O)CN2C(=O)N(C)Cc3ccccc32)CN1C	-31
O=C(CCN1CCCCC1)N[C@H]1CC[C@@H](CC(=O)N2CCC(Cc3ccccc3)CC2)O[C@H]1CO	-34
Cc1cc(-c2ccccc2CO)nc(-c2ccccc2)n1	-9
CCOC(=O)N1CCC(NC(=O)c2cc3n(n2)CCCN(C)C3)CC1	9
CN1CCN(c2ccc3nc(-c4ccc5nc(-c6ccc(O)cc6)[nH]c5c4)[nH]c3c2)CC1	-5
O=C(c1cc(=O)[nH]c2ccc(F)cc12)N1CCCC(c2ccn[nH]2)C1 (stereo unspecified)	-3
O=C1NN(c2ccccc2)C(SCc2ccccc2Cl)=Nc2ccccc21	-30
O=C(Nc1ccc(OC(F)(F)F)cc1)N1CCC(O)CC1	28
CN(Cc1cc(-c2ccccc2)on1)C(=O)CCc1cn2ccccc2n1	172
COc1cc2c(cc1OC)C1N(CC2)C(C(C)=O)=NN1c1ccc(C)cc1 (stereo unspecified)	37
CC(C)N1CCN(c2ccc3ccc(C(=O)NC4CCCC4)cn23)CC1	-9
O=C1CCCCN1CCC(=O)N(Cc1ccsc1)CC1CCCO1 (stereo unspecified)	-39
COc1cccc(COC2CN(CC(C)C)C(=O)CN(C(=O)C3CC(=O)Nc4ccccc43)C2)c1 (stereo unspecified)	4
COc1ccccc1-c1n[nH]c(=O)n1CCc1ccccc1F	5
N#CCN1C(=O)CC2(CCN(c3ncc(F)cn3)CC2)c2ccccc21	-10
Cc1cccc(C(=O)N2CCC(C3=CCN(CC(N)=O)CC3)CC2)c1	5
O=C(O)c1ccc(-c2ccccn2)s1	-16

An excerpt, so the mix of outcomes need not match the whole.
